# Compound activity from PubChem.
# KCNQ2 pot: enhances the rat KCNQ2 potassium channel. O88943. CHO-K1 KCNQ2, FluxOR thallium flux fluorescence; active compounds read high. B-score at 10 µM. 0.54% of 310,000 active. AID 2239;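 active means fluorescence ratio B-score at least 3 SD of library B-scores, with initial fluorescence B-score within 3 SD, cut at about 5.3 in these data; same plate scores as AID 2156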;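 further: B-score of peak minus minimum over baseline fluorescence ratio after K+ and Tl+ stimulus; positive B-score means potentiation of KCNQ2 with more thallium influx and brighter signal; only the inactives scoring about 0 or higher are listed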
# Target sequence (O88943 whole entry, looked up): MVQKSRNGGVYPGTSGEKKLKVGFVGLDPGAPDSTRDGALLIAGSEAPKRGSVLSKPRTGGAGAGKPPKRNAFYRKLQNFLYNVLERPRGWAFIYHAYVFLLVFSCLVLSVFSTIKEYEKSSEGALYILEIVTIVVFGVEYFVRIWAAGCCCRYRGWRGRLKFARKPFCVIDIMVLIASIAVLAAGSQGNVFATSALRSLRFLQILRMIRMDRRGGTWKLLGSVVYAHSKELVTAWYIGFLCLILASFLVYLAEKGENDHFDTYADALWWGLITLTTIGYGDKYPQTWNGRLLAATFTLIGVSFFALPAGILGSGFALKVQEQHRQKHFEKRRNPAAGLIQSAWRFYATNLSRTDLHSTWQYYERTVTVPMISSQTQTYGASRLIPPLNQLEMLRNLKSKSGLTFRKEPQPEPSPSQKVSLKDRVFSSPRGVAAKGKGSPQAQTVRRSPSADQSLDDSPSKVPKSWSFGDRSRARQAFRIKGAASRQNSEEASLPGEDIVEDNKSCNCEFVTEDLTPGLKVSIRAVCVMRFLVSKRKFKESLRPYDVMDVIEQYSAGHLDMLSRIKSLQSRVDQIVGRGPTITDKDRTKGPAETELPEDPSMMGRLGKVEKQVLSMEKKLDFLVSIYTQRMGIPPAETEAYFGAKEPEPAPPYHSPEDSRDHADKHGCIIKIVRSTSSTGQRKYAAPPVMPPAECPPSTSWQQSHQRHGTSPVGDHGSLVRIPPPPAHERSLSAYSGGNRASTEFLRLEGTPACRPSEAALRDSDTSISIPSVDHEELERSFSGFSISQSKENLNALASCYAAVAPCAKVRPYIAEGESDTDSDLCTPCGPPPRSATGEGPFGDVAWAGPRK
# KCNQ2 pot baseline: second read-out of KCNQ2 pot, no call of its own (marks repeat the call); B-score; compound at 10 µM; measured here: initial fluorescence intensity artifact check;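 brightness before thallium and not channel activity; 0 = typical well and far values either way flag optical interference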
# The depositor's hits bear a star. An excerpt; count on the stated rates, not on these rows.
SMILES | KCNQ2 pot | KCNQ2 pot baseline
Cc1oc(S(=O)(=O)N2CCCC2)cc1C(=O)Nc1ccc(F)cc1 | 1.4 | 0.27
CSc1nc(C)cc(-c2cc(C(=O)Nc3ccccc3)on2)n1 | 0.73 | -2.1
COc1ccc2c(=O)c3c(=O)n(-c4ccccc4)c(-c4ccc(C)cc4)nc3oc2c1 | 0.38 | 0.02
O=C(/C=C/c1ccccc1)Nc1scc(-c2ccccc2)c1C(=O)O | 1.8 | -1.1
COCCCNC(=O)CCn1c(=O)c2ccccc2n(CC(=O)Nc2c(C)cccc2C)c1=O | 1.5 | 0.49
CCCn1c(=O)[nH]c(=O)c2c1nc(-c1ccc(C#N)cc1)n2CCOC | 0.31 | 0.57
CCCCCCCCc1nnc(NC(=O)c2ccco2)s1 | 0.2 | 1.8
Cc1cccc(-c2nnc(SC(C)C(=O)N3CCOCC3)o2)c1 (stereo not drawn) | 0.87 | -0.46
Cc1ccc(C(C)C)c(OCc2nnc3n2CCCCC3)c1 | 1.5 | -0.82
Cc1cccc(NC(=O)CSCC(=O)N2CCN(Cc3ccc4c(c3)OCO4)CC2)c1 | 1.4 | 4.1
CCOC(=O)N1CCN(Cc2c(F)cccc2F)CC1 | 0.73 | -0.7
Cc1nc(SCC(=O)NCC2CCCO2)c2c3c(sc2n1)CCC3 (stereo not drawn) | 1.2 | -0.46
Cc1ccc(C(C)(C)NC(=O)C2CCC(=O)N(CCCN3CCOCC3)C2)cc1 (stereo not drawn) | 0.02 | -2
CCN1CCCC1CNC(=O)C(NC(=O)C1CCC(C)CC1)C(C)C (stereo not drawn) | 0.85 | 2.7
CCCNC(=O)c1cc2nc(-c3ccccc3)cc(C(F)(F)F)n2n1 | 0.84 | -0.21
C=CCN(CC=C)C(=O)C1CCC(C(=O)N(CC=C)CC=C)CC1 (stereo not drawn) | 0.43 | 0.46
Cc1cc(C)nc(/N=C(\N)N2CCCCC2)n1 | 0.52 | -0.11
O=C1CCCc2nc(N3CCN(c4ccccc4)CC3)ncc21 | 1.5 | -0.06
CN(c1nc2ccccc2n2c(-c3ccco3)nnc12)S(=O)(=O)c1ccccc1 | 1.1 | 0.72
CCN1C2=NCCCN2c2cc(C)c(C)cc21 | 0.1 | -0.02
Cc1ccccc1NC(=O)c1ccc(N/N=C/c2ccccc2O)c([N+](=O)[O-])c1 | 0.03 | 0.4
Cc1cc(C)c(C#N)c(Oc2ccccc2)n1 | 1.7 | -0.82
CCc1cc2ccccc2nc1SCC(=O)Nc1cc(C)on1 | 1.8 | 4.8
Cc1ccccc1C(=O)Nc1cccc(C(=O)N/N=C/c2cc(Cl)cc([N+](=O)[O-])c2O)c1 | 1.1 | 0.4
COc1ccc(C(=O)NC2CCSc3ccccc32)cc1F (stereo not drawn) | 0.03 | 1.1
CCOC(=O)Cc1csc(NS(=O)(=O)c2ccc(F)cc2)n1 | 0.74 | -1.8
Cc1nc2nc[nH]c2cc1Br | 0.09 | 2.8
CCOc1ccc(S(=O)(=O)N2CCCC(C(=O)NCc3ccccn3)C2)cc1 (stereo not drawn) | 1.3 | 0.17
Cc1ccc(NS(=O)(=O)c2ccc(OCC(=O)Nc3cccc([N+](=O)[O-])c3)c(C)c2)cc1 | 0.01 | -1.7
O=C(O)CC1C(=O)NCCN1CCCc1ccccc1 (stereo not drawn) | 0.12 | 1.2
COc1ccccc1-n1c(SCC(=O)NC(C)(C)C)nnc1-c1ccco1 | 1.2 | -0.01
NC(=O)C1CCN(c2oc(/C=C/c3ccccc3)nc2S(=O)(=O)c2ccccc2)CC1 | 0.01 | -0.47
CCCn1c(=O)c2ccccc2n2c(=S)[nH]nc12 | 0.99 | 1.5
Cc1cc(Br)ccc1OCC(=O)NNC(=O)C(=O)Nc1ccccc1 | 11* | -0.38*
Cc1ccccc1OCC(=O)N/N=C/c1ccc([N+](=O)[O-])o1 | 0.13 | 1.6
CCOc1ccccc1/C=N/NC(=O)CNC(=O)c1cccs1 | 1.1 | 0.13
CC12CC(NC(=O)N1c1cccc(C(=O)N3CCCCC3)c1)c1ccccc1O2 (stereo not drawn) | 1.8 | -0.48
C#Cc1ccc2c(c1)COc1c3ccccc3nn1-2 | 2.2 | -0.36
COCCC(=O)N1CCC(Oc2ccc(C(=O)NCCSC)cc2)CC1 | 0.36 | -1.7
COc1ccc(C(=O)CC(=O)c2ccccc2O)cc1 | 0.02 | -0.08
Cc1nn(CC(=O)NCCCN2CCCCC2C)c(=O)c2cccn12 (stereo not drawn) | 0.35 | 0.79
O=C(O)c1cc([N+](=O)[O-])ccc1Nc1ccccc1 | 1.8 | -1.4
CCC(Cc1ccccc1)NC(=O)C1CCN(c2nn3c(=O)cc(C)nc3s2)CC1 (stereo not drawn) | 1.5 | 1.5
CC(Sc1nc2ccccc2s1)C(=O)Nc1nnc(C(C)C)s1 (stereo not drawn) | 1.6 | 0.4
O=C(NCc1nnc2c(C(F)(F)F)cc(Cl)cn12)c1ccc2c(c1)OCO2 | 0.8 | 0.62
O=C(Nc1ccccc1)OCCOc1ccccc1Br | 0.19 | 0.44
Cc1ccn2cc(-c3nonc3C)cc2c1 | 1.4 | -1.4
O=C(CSc1nn(-c2ccccc2)c(=S)s1)NC1CCS(=O)(=O)C1 (stereo not drawn) | 0.34 | 1.2
NC(=S)Nc1ccc2c(c1)OCO2 | 1.2 | 0.83
COc1ccc(C(=O)N(C)c2c(C)n(C)n(-c3ccccc3)c2=O)cc1OC | 0.14 | 0.42
CCCCCCOC(=O)c1ccccc1NC(=O)/C=C/C(=O)O | 0.59 | 0.67
Cc1ccc(C(=O)NCCCNC(=O)COc2ccc(Cl)c(C)c2)cn1 | 1.4 | 1.3
COc1ccccc1N1CCN(c2ccc(Cl)nn2)CC1 | 0.2 | -0.54
CN(C)C(=O)c1c(NC(=O)c2ccco2)sc2c1CCCCC2 | 1 | 0.93
O=C(COc1ccc2ccccc2c1)NNC(=O)C(=O)Nc1ccccc1 | 12* | 2.9*
Brc1ccc(CNCC2CCCO2)cc1 (stereo not drawn) | 1.1 | 0.3

# New compounds follow.
SMILES | KCNQ2 pot | KCNQ2 pot baseline
Cc1ccc(C(=O)NCCN2CCOCC2)cc1Cl | 0.57 | -0.89
COC(=O)C(C(=O)OC)=C(/C=C/C=C/N(C)C)N(C)C | 0.02 | 0.21
O=C(COc1cccnc1[N+](=O)[O-])Nc1ccc(S(=O)(=O)N2CCOCC2)cc1 | 0.11 | 1.2
CCC1(c2ccc(Cl)cc2)NC(=S)N(c2ccc(C)c(C)c2)N1 (stereo not drawn) | 29* | 0.24*
CSc1sc(C)cc1C1C(C#N)=C(N)N(c2cccnc2)C2=C1C(=O)CC(C)(C)C2 (stereo not drawn) | 1.1 | -0.01
CCC/C(O)=C1\C(=O)CC(c2ccccc2)CC1=NC (stereo not drawn) | 0.66 | -0.57
CCc1noc(C)c1C(=O)N1CCN(c2cccc(C)c2C)CC1 | 0.67 | -2.4
Cc1cc(NC(=O)CCc2ccc(-c3ccccc3)o2)no1 | 0.67 | 0.7

# Reformatted with each value named: 2 of the compounds above.
mol: Cc1cccc(-c2nnc(SC(C)C(=O)N3CCOCC3)o2)c1 (stereo not drawn)
  KCNQ2 pot: 0.87	KCNQ2 pot baseline: -0.46

mol: COc1ccccc1-n1c(SCC(=O)NC(C)(C)C)nnc1-c1ccco1
  KCNQ2 pot: 1.2	KCNQ2 pot baseline: -0.01

# (list continues)
SMILES | KCNQ2 pot | KCNQ2 pot baseline
O=C(NCCCN1CCCC1)c1cccc(N2CCCC2=O)c1 | 0.02 | -1.3
CCCCN(C(=O)CSc1nnc(Nc2ccc(C)c(C)c2)s1)c1c(N)n(Cc2ccccc2)c(=O)[nH]c1=O | 0.11 | 0.65
CCCCNCCOCCOc1ccccc1-c1ccccc1 | 1.4 | -0.57
O=C(Nc1ccccc1)Nc1nc(-c2ccc(Cl)cc2)cs1 | 0.82 | 0.92
COc1ccc(NC(=O)COc2ccc3c(C)cc(=O)oc3c2)cc1S(=O)(=O)N1CCCCC1 | 0.1 | 0.9
CC1CCCCC1NC(=O)COC(=O)c1ccc2c(c1Cl)C(=O)c1ccccc1C2=O (stereo not drawn) | 0.16 | -1
Cc1nn(C)c(C)c1NC(=O)CCSc1nc(-c2ccco2)cc(C(F)(F)F)n1 | 1.8 | 2.2
O=C(O)c1ccc2c(c1)C(=O)N(CCCCCCCN1C(=O)c3ccc(C(=O)O)cc3C1=O)C2=O | 0.18 | 0

# Entries of single compounds, looked up by structure. Order of values: KCNQ2 pot	KCNQ2 pot baseline
# `CCC/C(O)=C1\C(=O)CC(c2ccccc2)CC1=NC` (stereo not drawn) in the list: 0.66	-0.57
# `Cc1ccc(NS(=O)(=O)c2ccc(OCC(=O)Nc3cccc([N+](=O)[O-])c3)c(C)c2)cc1` in the list: 0.01	-1.7
# `COc1ccccc1-n1c(SCC(=O)NC(C)(C)C)nnc1-c1ccco1` in the list: 1.2	-0.01
# `O=C(CSc1nn(-c2ccccc2)c(=S)s1)NC1CCS(=O)(=O)C1` (stereo not drawn) in the list: 0.34	1.2

# Later entries.
molecule	KCNQ2 pot	KCNQ2 pot baseline
CC(=O)Nc1ccc(SCC(=O)N(CCC#N)c2cc(C)cc(C)c2)cc1	0.82	-0.1
CCN(CC)CCn1c2c(c(SCC(=O)Nc3ccccc3Cl)nc1=O)CCC2	0.11	0.21
C=CCNc1nnc(-c2ccncc2)s1	0.01	-1.3
O=C(NCc1cccc(C(F)(F)F)c1)C1CCC(=O)N(C2CCCCCC2)C1 (stereo not drawn)	1.7	0.03
COC(=O)c1cccc(C(=O)N2CCCC(C(=O)c3cccc(OC(C)C)c3)C2)c1 (stereo not drawn)	1.3	1.2
Cc1csc(NC(=O)C2=COCCO2)n1	0.35	-1
O=C(CN1CCOc2ccccc21)NCc1cccs1	0.45	0.39
O=C(CCn1c(=O)oc2ccccc21)NCc1ccc2c(c1)OCO2	0.69	-0.23
COc1cc(C(=O)N[C@H](C(=O)NC2CCCCCC2)C(C)C)cc(OC)c1OC	0.01	-0.04
CCN(CC)S(=O)(=O)c1ccc(N2CCOCC2)c(NS(=O)(=O)c2ccc(C)cc2)c1	0.03	-1.1
Cc1c(C(=O)N2CCN(Cc3ccccc3)CC2)sc2ncnc(N3CCOCC3)c12	1.7	0.23
Cc1ccc(C(=O)NNC(=O)c2cccnc2SCc2cccc([N+](=O)[O-])c2)cc1	1.4	0.17
Cc1ccc(NC(=O)CSCC(=O)Nc2ccccc2N2CCCC2)cc1	1.4	-1.9
CCOC(=O)c1c(C)nc2c(c1-c1cc(OC)ccc1OC)C(=O)CC(C)(C)C2	0.38	0.06
CCc1ccc2c(c1)/C(=N/N(C)C(=S)NC)C(=O)N2	0.03	0.49
Cc1ccccc1-n1c(-c2ccc(Br)o2)n[nH]c1=S	0.74	0.31
CC(=O)Nc1ccc(NC(=O)/C=C/c2ccc(Cl)cc2)cc1	0.71	0.78
O=C(CSc1nc(-c2ccccc2)cc(=O)[nH]1)Nc1ccc(Br)cc1	0.04	0.99
O=C(NN1C(=O)CSC1=S)c1cccnc1	0.11	-0.37
CC1(C(=O)NC(=S)N(CCC#N)c2ccccc2)CC1(Cl)Cl (stereo not drawn)	0.07	0.45
COC(=O)CSc1nc(C)cc(C)c1C#N	0.69	1.9
Clc1c(-c2ccccc2)nnn1-c1ccccc1	0.17	-2.9
CN1C(=O)c2ccccc2OC1(C)Cc1ccccc1 (stereo not drawn)	0.6	-0.3
O=C(NN1CCN(Cc2ccccc2Cl)CC1)c1ccc(Cl)cc1	0.39	0
Cc1noc(C)c1S(=O)(=O)Nc1ccc(C#N)cc1	0.4	1
O=C(CCC(=O)c1cccs1)NCc1ccc(F)cc1	0.03	0.73
CCOC(=O)CC1C(=O)NCCN1S(=O)(=O)c1ccccc1 (stereo not drawn)	1.6	0.8
Cc1ccc(C)c(S(=O)(=O)N2CCCOC2CNC(=O)C(=O)NCc2ccncc2)c1 (stereo not drawn)	0.03	-0.55
CCOc1ccc(C(=O)n2cnnc2N)cc1	2.7	-1.3
COc1ccc(C(=O)NCCS(=O)(=O)N2CCc3ccccc3C2)cc1OC	0.85	1.9
COc1ccc(/C=N\NC(=O)c2ccc(F)cc2)cc1COc1ccccc1C(N)=O	2.5	-0.72
C/C(=N\NC(=O)c1nnn(-c2nonc2N)c1-c1ccc2c(c1)OCO2)c1ccccc1	0.85	-0.03
Cc1ccc(OCC(=O)N2CCN(C(=O)c3cccnc3)CC2)cc1	1.3	-0.23
Cc1ccc(S(=O)(=O)c2nc(-c3ccco3)oc2SCC(=O)NCC2CCCO2)cc1 (stereo not drawn)	0.58	-0.59
Cc1ccc(NC(=O)c2cccnc2)cc1S(=O)(=O)N(C)C	0.87	-0.6
CCOc1cc(CNCC(C)C)c(Cl)cc1OCC(=O)Nc1ccccc1	0.16	-0.65
COc1cc(/C=N/NC(=O)C2CCN(CC(O)COCc3ccccc3)CC2)cc(OC)c1OC (stereo not drawn)	0.71	-0.51
COc1ccc(N(CC(=O)Nc2cc(C)ccc2C)S(=O)(=O)c2c(C)noc2C)cc1	0.28	0.95
O=C(CCN1C(=O)/C(=C/c2ccccc2Cl)SC1=S)NNC(=O)c1ccccc1O	0.03	-0.62
CN1CCC(N(C)C(=S)NC(=O)c2cc(-c3cccc(Br)c3)nc3ccccc23)CC1	1.1	0.47
CC(CCc1ccccc1)NC(=O)c1ccc(-n2cncn2)c([N+](=O)[O-])c1 (stereo not drawn)	2.8	-0.44
NC(=O)CN1CCN(c2nc(-c3ccc(F)cc3)cs2)CC1	0.32	0.95
CCN(CC)C(=O)CNC(=S)N(CCCN1CCOCC1)Cc1cccs1	0.92	0.09
COc1ccc(CC(=O)Nc2cccc(-c3ccc4nncn4n3)c2)cc1OC	0.4	2.9
O=S(=O)(c1ccccc1Cl)N1CCC(O)(c2cccnc2)CC1	1.2	0.34
COc1ccc(OC(=O)CCc2c[nH]c3ccccc23)cc1	0.91	-1.5
O=C(Nc1cccc(Cl)c1)Nn1cnnc1	1.3	0.23
